Marburg entry inh: blocks Marburg virus binding to or entry into cells. Potency, µM (top dose mostly 37.8 µM), inactives show at the highest dose activity change, negative = inhibition, usual class: inhibitors. AID 540276. actives 1.8% (n = 300,000). Marburg virus pseudotyped entry inhibition, cell reporter; control for the full effect not named in the record; about a third of the inactives were read at about 46 µM; active = well fitted inhibition curve with a large enough effect; inconclusive = small, poorly fitted or top-dose-only effect, or effect the other way; inactive = flat fitted curve, though single readings scatter; tested in HEK293 cells; about a fifth of its hits are not listed in these tables; also: % is scaled to controls: 0 for no effect and ±100 for the full control effect; luciferase read-out
SARS PLP yeast: blocks SARS-CoV papain-like protease in a yeast assay; actives 0.19% (n = 330,000); Potency, µM (titrated, usually from 32.9 µM), for the others: at the top dose activity, positive = growth rescue; S. cerevisiae expressing SARS-CoV PLpro, growth rescue; control for the full effect not named in the record; also: 0% is about no effect; nearly all actives have a fitted effect of over 55% in size; growth read by luminescence after 48 h
RE007 growth inh: less growth of the S. pombe RE007 Vpr strain | S. pombe RE007 Vpr strain, BacTiter-Glo ATP luminescence, 24 h; control for the full effect not named in the record | AID 651644 | actives 0.21% (n = 360,000) | Potency, µM (highest dose often 92.2 µM), without a hit: at the top dose activity change, negative = less growth; active = well fitted falling curve with a large enough effect; inconclusive = small, poorly fitted or top-dose-only effect; inactive = no such curve, though single readings can be large or run the other way;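 also: % is scaled to controls: 0 for no effect and ±100 for the full control effect; nearly all actives have a fitted effect of over 50% in size; the assay follows cell death caused by Vpr and the record does not say whether a fall means rescue or toxicity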
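Fission yeast strain RE007, carrying one chromosomally integrated HIV-1 vpr copy, was seeded at OD 0.01 in PMG+AL medium with 23 nL pinned compound. After 24 h at 30 °C and 99% humidity, viability was read by BacTiter-Glo luminescence.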
Cruzain inh Det: inhibitors of Trypanosoma cruzi cruzain with detergent; P25779; purified cruzain, Z-FR-AMC fluorescence, 0.01% Triton; Potency, µM, for inactives: max response, negative = inhibition, most hits filed as inhibitors; actives 0.43% (n = 200,000); active = well fitted curve in the direction sought with a large enough effect; inconclusive = small, poorly fitted or top-dose-only effect, or another doubt; inactive = no such curve, though single readings can be large; an effect the other way counts as inactive or inconclusive;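 also: plate controls were neutral wells for no effect and buffer without enzyme for full effect; nearly all actives have a fitted effect of over 40% in size; top concentration of the series not given in the record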
Target sequence (P25779 123-467 limits assumed): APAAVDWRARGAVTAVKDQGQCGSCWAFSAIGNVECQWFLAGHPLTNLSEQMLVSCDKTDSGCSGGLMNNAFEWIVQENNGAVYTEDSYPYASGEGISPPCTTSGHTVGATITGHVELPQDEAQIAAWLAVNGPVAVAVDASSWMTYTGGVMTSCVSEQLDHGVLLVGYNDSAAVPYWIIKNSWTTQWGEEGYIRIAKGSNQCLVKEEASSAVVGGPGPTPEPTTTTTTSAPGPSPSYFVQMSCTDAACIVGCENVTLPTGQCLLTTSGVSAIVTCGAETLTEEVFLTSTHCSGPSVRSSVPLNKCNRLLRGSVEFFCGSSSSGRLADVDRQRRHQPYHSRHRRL
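Read-out: AMC fluorescence (360 nm excitation, 450 nm emission), four reads over 2 min, first-to-third difference used. Conditions: cruzain 1.5 nM, Z-FR-AMC 2 uM, pH 5.5 acetate, 5 mM DTT, 0.01% Triton X-100.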
LASV entry inh: blocks Lassa virus binding to or entry into cells | AID 540256 | Potency, µM (doses to about 37.9 µM), inactives show at the top dose activity change, negative = inhibition, hits mostly inhibitors | Lassa virus pseudotype entry inhibition, cell reporter; control for the full effect not named in the record | actives 1.2% (n = 300,000); active means well fitted inhibition curve with a large enough effect; inconclusive means small, poorly fitted or top-dose-only effect, or effect the other way; inactive means flat fitted curve, though single readings scatter; tested in HEK293 cells; also: % is scaled to controls: 0 for no effect and ±100 for the full control effect; nearly all actives have a fitted effect of over 50% in size; luciferase read-out
Cruzain inh noDet: blocks cruzain activity in detergent-free assay. P25779. actives 2.3% (n = 200,000). Potency, µM, inactives show max response, negative = inhibition, usual class: inhibitors. purified cruzain, Z-FR-AMC fluorescence, no detergent; active = well fitted curve in the direction sought with a large enough effect; inconclusive = small, poorly fitted or top-dose-only effect, or another doubt; inactive = no such curve, though single readings can be large; an effect the other way counts as inactive or inconclusive;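 also: plate controls were enzyme without inhibitor for no effect and buffer without enzyme for full effect; nearly all actives have a fitted effect of over 40% in size; top concentration of the series not given in the record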
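Purified cruzain at 1.5 nM, pre-incubated 15 min with compound at room temperature in 100 mM sodium acetate pH 5.5, 5 mM DTT, 0.00005% Triton X-100. Reaction started with 2 uM Z-FR-AMC; AMC fluorescence increase over 60 s gives rate.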
NS1 inh: blocks influenza NS1 protein function; Potency, µM (series often up to 46.1 µM), for the others: at the top dose activity, positive = more growth; actives 0.4% (n = 270,000); S. cerevisiae slowed by influenza A NS1, growth recovery by OD600; also: actives are rising curves; nearly all actives have a fitted effect of over 50% in size
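Growth recovery, yeast-based: influenza A NS1 expressed in S. cerevisiae causes slow growth, and suppressors are detected by OD600. The parent strain without NS1 is used as positive control.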
StopGo reporter: lowers the luciferase signal of an FMDV 2A StopGo reporter | human cells with a luciferase reporter of 2A StopGo recoding; control for the full effect not named in the record | AID 1159524 | actives 1.2% (n = 410,000) | Potency, µM (top dose mostly 57.9 µM), for the others: top-dose signal change, negative = less light; active = well fitted falling curve with a large enough effect; inconclusive = small, poorly fitted or top-dose-only effect; inactive = no such curve, though single readings can be large or run the other way; tested in HEK293T cells; also: % is scaled to controls: 0 for no effect and ±100 for the full control effect; nearly all actives have a fitted effect of over 45% in size; luciferase light after 4 h
* hit, by the source's call; ? = inconclusive; / = no result given; & = joins results of further samples; [ ] = another dose, or the depositor's remark. Unless noted, calls follow the shape of the dose curve; as a rule, active means well fitted rising curve with a large enough effect; inconclusive means small, poorly fitted or top-dose-only effect; inactive means no such curve, though single readings can be large or run the other way. Potency is read from the fitted curve at half-maximal effect.

| SMILES | Marburg entry inh | SARS PLP yeast | RE007 growth inh | Cruzain inh Det | LASV entry inh | Cruzain inh noDet | NS1 inh | StopGo reporter |
| --- | --- | --- | --- | --- | --- | --- | --- | --- |
| CC(NC(=O)[C@H](C)NC(=O)c1ccco1)c1ccc(S(N)(=O)=O)cc1 (some centres undefined) | 3%[46.1 µM] | -2% | 10% | / | 11%[46.1 µM] | / | 4% | 2% |
| Cn1c(Cn2nnc3ccccc32)nnc1SCC(=O)c1ccccc1F | 11% | -5% | -6% | -5.7% | 1% | -10% | 0% | / |
| Cc1nc2sc(C(c3ccc(Cl)cc3)N3CCN(c4ccccc4F)CC3)c(O)n2n1 (centres undefined) | -3% | 7% | -1% | -5.6% | 0% | ? | 16% | 8% |
| CN(C)c1nnnn1Cc1ccccc1 | -5%[46.1 µM] | 0% | 15% | / | -2% | / | / | -1% |
| COc1ccc(-c2cc(C(=O)Nc3c(C)nn(Cc4ccc(F)cc4)c3C)no2)cc1OC | -1%[46.1 µM] | / | / | -8.2% | -11%[46.1 µM] | ? | / | -28% |
| COC(=O)c1ccccc1-n1c(CCC(=O)O)ccc1-c1ccccc1 | 11%[46.1 µM] | -3% | 0% | 1.6% | 0%[46.1 µM] | 10% | 7% | -1%&-15% |
| Cc1ccc(Cc2nc3ccccc3nc2SCC(=O)N2CCN(c3ccccc3F)CC2)cc1 | / | / | / | -1.1% | -2%[46.1 µM] | -6% | / | -17% |
| COC(=O)CCC(=O)c1oc2ccc(OC)cc2c1N | ? | -4% | -12% | -1.4% | -26% | -12% | -4% | -8% |
| COc1ccc2oc(C(=O)OCC(=O)NCCc3ccccc3)c(C)c2c1 | 7% | -3% | 0% | / | -9% | / | / | 8% |
| CCOC(=O)c1c(-c2ccc(C)cc2)csc1NC(=S)NC(=O)c1ccccc1 | 1.8µM* | 4% | 3% | 1.1% | 2.1µM* | 25µM* | -1% | ? |
| COc1ccc(S(=O)(=O)Cc2ccc(C(=O)NCCc3cc(OC)ccc3OC)o2)cc1 | ? | -1% | 1% | / | ? | / | / | 0% |
| NC(=O)c1ccccc1NC(=O)c1ccc2c(c1)OCO2 | / | -9% | ? | / | / | / | -22% | 0% |
| O=C1c2ccccc2C(=O)N1CCOc1ccccc1 | ? | / | -6% | / | ? | / | / | 8% |
| COc1ccc(CCC(=O)OC(C)C(=O)c2ccc(C)cc2)cc1 (centres undefined) | ? | 12% | 8% | -6.3% | 6% | 10% | 2% | -14% |
| O=C(c1cccc(Br)c1)N1CCN(C(=O)c2cccc(Br)c2)CC1 | ? | -7% | 13% | -1.0% | -1% | 3% | -12% | -12% |

In the list so far, 2 contain an aryl thioether with sulfur outside any ring.
| SMILES | Marburg entry inh | SARS PLP yeast | RE007 growth inh | Cruzain inh Det | LASV entry inh | Cruzain inh noDet | NS1 inh | StopGo reporter |
| --- | --- | --- | --- | --- | --- | --- | --- | --- |
| Cn1c(Cn2nnc3ccccc32)nnc1SCC(=O)c1ccccc1F | 11% | -5% | -6% | -5.7% | 1% | -10% | 0% | / |
| Cc1ccc(Cc2nc3ccccc3nc2SCC(=O)N2CCN(c3ccccc3F)CC2)cc1 | / | / | / | -1.1% | -2%[46.1 µM] | -6% | / | -17% |

The list continues:
| SMILES | Marburg entry inh | SARS PLP yeast | RE007 growth inh | Cruzain inh Det | LASV entry inh | Cruzain inh noDet | NS1 inh | StopGo reporter |
| --- | --- | --- | --- | --- | --- | --- | --- | --- |
| Nc1nonc1-c1noc(-c2ccccc2)n1 | ? | 4% | -10% | -0.1% | 37%[14.3 µM] | 23% | 18% | 57%[activator] |
| COc1ccc(CNC(=O)C2CC(c3cccc([N+](=O)[O-])c3)=NO2)cc1 (centres undefined) | / | 4% | -12% | 2.7% | / | -12% | -47% | 43%[activator] |
| CC(c1ccccc1)n1cc(C(=O)NCc2ccncc2)nn1 (centres undefined) | 14%[46.1 µM] | -4% | -1% | 0.6% | 1% | 3% | -1% | 1% |
| Cc1ccc(/C=N/Nc2ncnc3nc[nH]c23)cc1 | 1% | 3% | 15% | / | / | / | 0% | 48%[activator] |
| CC(C)(C)N1CC(COc2ccccc2)OC1=O (centres undefined) | ? | -7% | -7% | -0.7% | 21% | -4% | -20% | 28% |
| Cc1ccc2nc(CSc3nnc(-c4ccncc4)n3C)cc(=O)n2c1 | ? | -2% | 4% | / | -16% | / | / | 4% |
| S=c1[nH]c2cc(Br)cnc2[nH]1 | -10% | 0% | -8% | / | 26% | / | 0% | -17% |
| Cc1ccc(-n2c(=O)c3ccc(C(=O)NCc4ccccc4Cl)cc3n(Cc3ccccc3F)c2=O)cc1 | 3%[46.1 µM] | / | / | -1.7% | -4%[46.1 µM] | 1% | / | 0% |
| CCCCNC1c2ccccc2C(=O)N1Cc1ccccc1 (centres undefined) | 1%[46.1 µM] | ? | -4% | / | -1%[46.1 µM] | / | 3% | -26% |
| Cc1cccc(N2CCN(CC(=O)N(C)Cc3ccccc3)CC2C)c1 (centres undefined) | / | 2% | 10% | / | / | / | 0% | -16% |
| O=C(c1cc(-c2ccc(F)cc2)no1)N1CCN(Cc2ccc3c(c2)OCO3)CC1 | / | -5% | -9% | / | / | / | -9% | 0% |
| Cc1nonc1-c1nc(-c2nonc2N)n[nH]1 | -3% | 8% | 0% | -0.8% | 1% | -8% | -2% | -4% |
| COc1cc(C(=O)c2ccccc2)c(OC)cc1C(=O)Nc1ccc(O)cc1 | -22%[46.1 µM] | -2% | -9% | / | ? | / | -11% | -17% |
| Nc1cc2c(cc1Br)-c1c(C(=O)O)cccc1C2O (centres undefined) | 4% | / | -1% | / | 11% | / | / | -19% |
| O=c1c(C=Nc2cccnc2Cl)c(O)n(CCCCl)c(=O)n1C1CCCCC1 | 8%[46.1 µM] | 8% | 13% | -12% | 4%[46.1 µM] | 9% | 2% | -21% |
| CCOC(=O)N1CCN(C(=O)Nc2cccc(Cl)c2)CC1 | -11% | -4% | 9% | 4.1% | -15% | 2% | -1% | 4% |
| Cn1c(N2CCOCC2)c(/C=N/OC(=O)c2cccnc2Cl)c2ccccc21 | 21%[46.1 µM] | 1% | -1% | / | 11% | / | -3% | -17% |
| CCn1cc(CNC(=O)c2cccc([N+](=O)[O-])c2)cn1 | -2% | 21% | -2% | 2.3% | 11% | -4% | -5% | -21% |
| CCC(NC(=O)NC1CCCCC1)c1ccccc1 (centres undefined) | / | -1% | 5% | / | / | / | -1% | -14% |
| CCOc1ccc(C2C(C#N)=C(N)Oc3nc[nH]c(=O)c32)cc1OC (centres undefined) | -1% | 3% | -9% | 1.8% | -2% | 8% | 4% | 29% |
| O=C(O)c1cc(N2C(=O)C3CCCCC3C2=O)ccc1NCc1cccnc1 (centres undefined) | 7%[46.1 µM] | 0% | 13% | / | 1%[46.1 µM] | / | 2% | -10% |
| CN1CCCN(C(=O)c2cc(-c3cccc4ccccc34)nc3ccccc23)CC1 | ? | 0% | -5% | / | ? | / | 7% | 21% |
| O=C(CCn1c(=O)oc2ccccc21)NCCCN1CCCC1=O | / | -1% | -10% | 1.0% | / | -2% | -5% | -12% |
| Cc1nc2ccc(C(=O)OCc3nnc(-c4ccccc4)o3)cc2nc1C | 0% | -10% | -17% | / | 9% | / | -43% | -18% |
| O=C(COC(=O)COc1ccc(Cl)cc1)NCc1ccc2c(c1)OCO2 | -21%[46.1 µM] | -4% | 2% | / | -1%[46.1 µM] | / | / | -11% |
| CCOc1ccc(Cc2noc3c2C(=O)CCC3)cc1OCC | -6%[46.1 µM] | -3% | 25% | / | 22% | / | / | -13% |
| Cc1nc(Cl)c(C(=O)NC(C)(C)C)c(C)c1Cl | 1% | -18% | -5% | -0.8% | 16% | -11% | 0% | 5% |
| CCCCn1cnc2c(SCc3ccc([N+](=O)[O-])cc3)nc(N)nc21 | -9% | / | -3% | / | -24% | / | / | -14% |
| C=CCSc1nnc(NC(=O)CSCc2c(C)noc2C)s1 | -8% | 0% | 33% | / | 20% | / | / | -2% |
| Cc1ccc(OCC(=O)N2CCN(Cc3ccc4c(c3)OCO4)CC2)cc1C | -17% | 1% | 0% | / | -1% | / | -9% | -2% |
| CN(C)C(=O)Cn1c(=O)n(C)c2ccccc21 | 13% | 5% | 6% | 0.7% | 6% | -6% | 5% | 7% |
| CC1=CC=CC2=N/C(=N\S(=O)(=O)c3ccc(F)cc3F)c3ccccc3CN12 | ? | -1% | -18% | / | -4%[46.1 µM] | / | / | -9% |
| C[C@]12CCC(=O)C=C1CC[C@@H]1[C@@H]2CC[C@]2(C)C(=O)CC[C@@H]12 | ? | -31% | -22%[18.4 µM] | -2.3%&-2.6%&1.0%&0.8% | 4% | -4%&7%&6%&-2% | -9%&-34% | -27%&-14% |
| Cc1ccc(NS(=O)(=O)c2ccc3c(c2)CCCN3C(=O)C2CCC2)cc1Cl | / | / | / | -4.8% | ? | -19% | / | 17% |
| CCOC(=O)c1c(NC(=O)c2ccc(C)c(C)c2)sc2c1CCCCC2 | / | / | / | 0.8% | 21%[46.1 µM] | -2% | / | -1% |
| O=C(c1cnsn1)N1CCCC(Nc2ccc(F)c(F)c2)C1 (centres undefined) | / | 0% | -2% | / | / | / | 3% | -23% |
| CCOC(=O)N1CCc2c(sc3c2c(=O)n(-c2ccccc2C(F)(F)F)c(=O)n3Cc2ccccc2C)C1 | -2%[46.1 µM] | / | / | -0.9% | -8%[46.1 µM] | -5% | / | 0% |
| CCOCCCn1c(=S)[nH]c2ncccc2c1=O | 4% | -1% | 5% | 3.4% | 17% | -7% | -3% | 2% |
| Cc1nn(Cc2ccccc2)c(Cl)c1/C=N/NC(=O)c1cccnc1 | -2% | 24% | 16% | -1.7% | -2% | -5% | 1% | 11% |

Compound activity: PubChem BioAssay, National Center for Advancing Translational Sciences (NCATS)
